# GIV-Gai inh: inhibitors of GIV GBA-motif binding to rat Galpha-i3 | P08753 | Galpha-i3/FITC-GIV peptide fluorescence polarization, 90 min; active compounds read low; scaled: aluminum fluoride 0%, vehicle 100% | percent of control (FP), % (concentration not given with the values) | hit rate 0.42% among 210,000 | AID 1224905;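 active = replicate mean at 85% of control or lower, very high polarization wells dropped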;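 note: wells of about 15 µL received 100 nL stock; the first replicate is given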
# Target sequence (P08753 whole entry, looked up): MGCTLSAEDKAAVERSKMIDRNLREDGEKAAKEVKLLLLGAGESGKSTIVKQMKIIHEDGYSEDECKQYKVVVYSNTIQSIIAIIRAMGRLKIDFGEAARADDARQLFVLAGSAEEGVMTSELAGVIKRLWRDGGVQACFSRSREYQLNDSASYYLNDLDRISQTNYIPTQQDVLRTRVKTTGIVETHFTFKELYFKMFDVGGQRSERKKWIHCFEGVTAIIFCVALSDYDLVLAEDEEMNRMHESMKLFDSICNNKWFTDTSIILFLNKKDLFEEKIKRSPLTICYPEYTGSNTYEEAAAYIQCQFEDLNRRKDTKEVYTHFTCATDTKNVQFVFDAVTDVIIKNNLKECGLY
# HCMV UL50-53 inh: disrupts HCMV UL50-UL53 complex binding; hit rate 0.15% among 190,000; HTRF UL50-UL53 interaction, normalized percent inhibition; AID 1918969; inhibition, % (no concentration beside the values);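 active = both replicates at 50% or more, plus weaker picks with an unusually low signal ratio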;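 note: stock transfer was 100 nL into about 20 µL; 0% = negative control wells and 100% = wells with untagged competitor protein; inactives centre near -12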
# Sa growth inh: blocks Staphylococcus aureus growth; S. aureus RN4220 growth, OD600, 20 h, 42 °C; active compounds read low; relative growth, % (concentration not given with the values); hit rate 0.53% among 170,000;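 active = growth at 42 °C up to 50% and 20 or more points under that at 30 °C, or under 10% at both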;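 note: 300 nL library stock went into each well; scaled to the means of positive and negative controls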
# Sa growth inh second temp: recorded beside Sa growth inh, whose call it bears; relative growth, %; measured here: growth at 30 °C;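 optical density after 20 h as mean of two plates; 100% = untreated growth and lower means inhibition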
# * hit, by the source's call; · = not tested or not shown; & = joins results of further samples. This is a random part of the collection; 0.82% or so of the library scored in one or more.
no.	Molecule	GIV-Gai inh	Sa growth inh	HCMV UL50-53 inh	Sa growth inh second temp
1	COc1ccccc1CNC(=O)CCC(=O)N1CC2CCCN2c2ccccc21 (configuration not stated)	102.3	113.1	·	88.4
2	CCn1c2ccccc2c2cc(/C=C/C(=O)O)ccc21	·	95.3	-26.5	89.8
3	COc1ccccc1OCC(=O)N(C)c1ccccc1	107.8	107.4	-3.5	96.3
4	O=C(Cc1ccccc1)Nc1nnc(C2CCCCC2)s1	·	89.6	-6.0	90.1
5	COc1ccccc1CNC(=O)CCCn1nc(C)c2c(C)n(-c3ccc(C)cc3)nc2c1=O	97.1	87.3	·	88.3
6	O=S(=O)(NCCn1c(CCc2ccccc2)nc2ccccc21)c1cccc(Cl)c1	101.3	·	-21.8	·
7	C#CCn1cnc2c(cnn2-c2ccc(Cl)cc2)c1=O	103.8	·	-31.3	·
8	CC(C)c1ccc(Cn2c(=O)c3sccc3n3c(=O)[nH]nc23)cc1	96.6	·	-15.8	·
9	CC(C)n1nccc1NC(=O)CSc1nnc(Nc2ccccc2F)s1	·	91.5	10.0	91.1
10	CSc1ccc(C(C(C(=O)c2cccs2)N2CCOCC2)N2CCOCC2)cc1 (configuration not stated)	99.2	94.0	-38.0	87.9
11	O=C(c1cc2cc(Br)ccc2oc1=O)N1CCN(c2ccccc2F)CC1	107.6	103.9	16.8	104.6
12	CS(=O)(=O)n1nc(-c2ccco2)nc1N	105.4	103.5	4.5	103.9
13	CN(C)/C=C1/Nc2ccccc2C1=O	118.8	86.0	·	47.6
14	CCOC(=O)c1oc2ccccc2c1NC(=O)COC(=O)CCc1nc2ccccc2c(=O)[nH]1	·	85.5	-19.5	85.8
15	CC(C)(C)c1ccc(C(=O)N2CCCC2)cc1	·	87.5	-11.3	89.9
16	COc1cc(CCC(=O)Nc2c(C(=O)N3CCN(c4ccccn4)CC3)oc3ccccc23)on1	104.5	98.5	-25.9	69.8
17	COC(=O)c1cc(S(=O)(=O)N(CCCN2CCOCC2)C2CCN(C)CC2)cn1C	106.5	94.6	-2.6	103.8
18	O=C(NCCc1ccccc1)N1CCOCC1	101.0	109.5	-8.4	100.9
19	CC1=C(Cc2ccc(OC(=O)c3ccccc3)cc2)C(=O)C(C(C)C)CC1 (configuration not stated)	107.8	106.2	·	81.9
20	O=C(CCC(=O)N1CCSc2ccccc21)NCc1ccccc1Cl	104.6&108.3	112.5	-3.9&-19.7	95.2
21	O=C(CN(C(=O)c1ccccc1)N1C(=O)CCC1=O)c1ccccc1	104.7	97.2	-19.8	100.5
22	CC1Cc2cc(S(=O)(=O)NCCC(=O)N3CCCCCC3)ccc2N1C(=O)C1CC1 (configuration not stated)	105.6	93.7	-36.2	74.8
23	CN(CCc1ccccn1)C(=O)c1cccnc1Oc1ccc(Cl)cc1	104.4	113.4	2.8	90.3
24	COc1cc(-c2ccc(=O)[nH]n2)ccc1OC(F)F	101.6	92.5&94.6	-51.9&-26.0&-37.4&-118.8&-30.4	90.0&94.7
25	O=C(NCc1ccco1)c1ccc(-n2cnc3cccnc32)cc1	99.9	98.5	-23.9	82.3
26	COc1ccc(NC(=O)C2CCCN2S(=O)(=O)c2ccc3c(c2)C(C)(C)C(=O)N3C)cc1 (configuration not stated)	102.0&105.7	85.0	-29.7&7.0	85.2
27	C=CCn1c(C2CCCN2C(C)=O)nc2ccccc21 (configuration not stated)	102.5	·	-5.0	·
28	O=S(=O)(NC1CC2CCC1C2)c1cccs1 (configuration not stated)	·	95.7	-11.8	83.9
29	Cc1cc(C)c2c(CC(=O)O)coc2c1	104.2	98.1	-9.2	79.6
30	Cc1ccc(Oc2ccc(C#N)c(C#N)c2)c(-n2nc3ccccc3n2)c1	103.4	119.6	0.2	97.2
31	CCOC(=O)N1CCc2c(sc3c2c(=O)n(CCc2ccccc2)c(=O)n3CC(=O)Nc2cccc(C)c2)C1	107.1	101.0	-47.8	90.6
32	O=S(=O)(c1ccccc1F)N1C2CCC1CC(O)(c1ccccc1F)C2 (configuration not stated)	102.1	90.5	20.9	103.3
33	CCC1CN(C(=O)N2CCC(C(=O)Nc3ccccc3F)CC2)c2ccccc2O1 (configuration not stated)	102.6	119.0	-15.6	101.4
34	Cc1ccn2c(=O)c(C(=O)NCCc3ccccc3)c(O)nc2c1	105.1	84.1	20.7	88.5
35	O=c1c2cc3c(nc2ncn1Cc1ccc(Cl)cc1)CCCC3	101.4	92.4	·	78.7
36	COc1ccc(/C(O)=C/C(=O)C(=O)NC2C3CC4CC(C3)CC2C4)cc1 (configuration not stated)	·	71.9	-8.6	84.3
37	N#CC1(NC(=O)COC(=O)c2ccc(-n3cccc3)cc2)CCCC1	·	67.7	-17.2	95.2
38	C=CCN1C(=S)N[C@@H]2CS(=O)(=O)C[C@@H]21	102.8	109.1	·	93.9
39	COc1ccc(C2CC(=O)Nc3c2c(C)nn3-c2ccc3nncn3n2)cc1 (configuration not stated)	96.0	·	-18.8	·
40	COc1ccc2c(c1)OC(c1ccccc1)CC2=O (configuration not stated)	101.2	75.9	-13.4	72.8
41	COC(=O)c1c(SC)nc2ccccc2c1OC	109.3	96.9	-2.0	88.6
42	CC(C)(C)c1ccc(-c2nc(CSc3ccccn3)no2)s1	97.5	81.7	-1.8	41.7
43	CCOC(=O)CC(=O)c1ccn(C)n1	·	106.9	4.4	95.8
44	Nc1cc(=O)n(-c2ccccc2)[nH]1	·	95.5	-14.6	77.2
45	Cc1[nH]c2ccc(C(=O)NCCCN3CCN(c4ccccc4F)CC3)cc2c1C	101.6	108.4	-1.6	87.4
46	CC1CCC(NC(=O)CCc2nc3sc4c(c3c(=O)[nH]2)CCCC4)CC1 (configuration not stated)	104.9	90.0	6.8	88.3
47	O=C(NC1CCCCC1)N1CCN(c2ccccn2)CC1	106.8	160.6	-3.6	88.7
48	COc1ccc(N2C(=O)CC(SCC(=O)O)C2=O)cc1 (configuration not stated)	98.5	101.5	·	90.3
49	CCn1cc(C(=O)N(C)c2ccc(OC)cc2)c2cc(OC)c(OC)cc2c1=O	102.4	105.5	-14.5	89.5
50	COc1cc(C2NC(=O)NC(C)=C2C(=O)OC2CCCCCCC2)cc(OC)c1OC (configuration not stated)	106.3	·	-10.2	·
51	Cc1ccc(CSc2oc(-c3ccco3)nc2S(=O)(=O)c2ccc(Cl)cc2)cc1	99.7	102.2	9.3	92.1
52	O=C(Nc1cccnc1)c1cccc(S(=O)(=O)N2CCc3ccccc32)c1	·	99.8	2.3	107.2
53	CCOc1ccc2c(c1)cc(C(=O)N1CCc3ccccc31)n2C	94.3	·	-6.2	·
54	S=C1NC(=S)NC(c2ccc(Br)cc2)N1	98.2	80.6	-24.1	79.6
55	O=C(O)C(Cc1ccccc1)N1C(=O)C2C3C=CC(C3)C2C1=O (configuration not stated)	97.5	86.9	-5.4	83.6
56	CCOc1cc(-c2ccc(OC(=O)c3ccc(C)cc3)c(OC)c2)cc(=O)c2c(C)oc(C)c12	115.8	89.7	-34.0	81.7
57	Cc1ccc(-c2cc(N3CCN(S(=O)(=O)c4ccc(C)c(C)c4)CC3)ncn2)cc1	99.2	·	-29.9	·
58	COc1ccc(N2CCN(C(=O)c3ccc4c(c3)CCN4S(=O)(=O)c3ccccc3)CC2)cc1	111.9	88.1	-3.9	97.9
59	CON(C)S(=O)(=O)c1cccc(C(=O)N2CCN(S(=O)(=O)c3ccccc3Br)CC2)c1	·	96.4	-0.7	98.3
60	Cc1cc(N2C(=O)C=CC2=O)no1	99.8	98.8	·	96.2

# Going on with the list.
no.	Molecule	GIV-Gai inh	Sa growth inh	HCMV UL50-53 inh	Sa growth inh second temp
61	COc1ccc(-c2cc3nc(C)c(CCC(=O)Nc4ccccc4C(C)=O)c(C)n3n2)c(OC)c1	96.7	91.6	-38.5	89.6
62	COc1ccccc1CNC(=O)CCC1N=C2c3ccccc3N=C(SCc3cccc(Cl)c3)N2C1=O (configuration not stated)	98.7	104.1	-11.9	92.3
63	O=c1c2c(nc(SCCO)n1C1CCCC1)-c1ccccc1CC21CCCC1	103.5	99.8	-18.9	88.1
64	CSc1nn2c(=O)c(-c3ccccc3)nnc2s1	101.5	100.6	-62.9	78.8
65	CCC(=O)OC(OP(=O)(CCCCc1ccccc1)CC(=O)N1C[C@H](C2CCCCC2)C[C@H]1C(=O)O)C(C)C (some centres not stated)	108.4	99.6	-39.0	100.1
66	O=C(NCC1COC2(CCCCC2)O1)Nc1ccccc1 (configuration not stated)	100.8	102.9	-13.5	85.4
67	COc1cc(/C=C2\SC(=S)N(c3ccc([N+](=O)[O-])cc3)C2=O)cc(Br)c1O	108.4	·	10.4	·
68	COc1ccc(CNC(=S)NN)cc1	95.9	83.2	-32.0	84.9
69	COc1ccc(NC(=O)Nc2ncn(Cc3cccc(C(F)(F)F)c3)n2)cc1OC	107.4	107.3	-9.4	97.5
70	CC(CC(=O)NCC1CCCO1)c1ccccc1 (configuration not stated)	100.5	107.7	-8.0	100.0
71	COc1cc(C2C(C(=O)OC(C)C)=C(C)NC3=C2C(=O)CC(c2ccc(Cl)cc2)C3)ccc1OC(C)=O (configuration not stated)	104.8	·	-28.2	·
72	Cc1ccc(C)c(NS(=O)(=O)c2ccccc2)c1	·	86.3	-3.2	106.5
73	COc1ccccc1NC(=O)C(NS(=O)(=O)c1cccc2nsnc12)c1ccccc1 (configuration not stated)	100.4	85.8	-88.0	89.5
74	O=C(c1cc2c(=O)n3ccccc3nc2s1)N1CCCC1	·	89.9	-3.9	94.4
75	CCSC(SCC)=C(C#N)C(=O)Nc1ccccc1	101.5	105.3	·	78.4
76	Cc1nnc(SCC(=O)N(C)C2CCS(=O)(=O)C2)n1Cc1ccccc1 (configuration not stated)	·	96.4	-13.6	91.2
77	NC(=O)c1ccc[n+]([C@@H]2O[C@H](COP(=O)([O-])OP(=O)(O)OC[C@H]3O[C@@H](n4cnc5c(N)ncnc54)[C@H](O)[C@@H]3O)[C@@H](O)[C@H]2O)c1	·	88.8	-15.9&-15.5	88.1
78	COc1ccc2c(c1)Cc1sc(NC(=O)c3ccccc3C)nc1-2	107.8	·	13.4	·
79	CC(NC(=O)C1CCC1)c1ccc2c(c1)OCO2 (configuration not stated)	105.7	104.2	-1.8	99.3
80	O=C(c1[nH]nc2c1CCc1ccccc1-2)N1CCc2[nH]nc(-c3ccc(F)cc3)c2C1	113.0	·	-11.5	·
81	O=S(Cc1c(Cl)cccc1Cl)c1ccc(C(F)(F)F)cn1 (configuration not stated)	107.5	106.2	4.0	93.0
82	CC(Oc1ccc(-c2ccc(C#N)cc2)cc1)C(N)=O (configuration not stated)	·	121.1	-12.7	78.4
83	CCOC(=O)c1c(C)c(C(=O)Nc2cccc(OC)c2)c(C)n1CC	101.7	·	-5.7	·
84	Cn1c(CO)nc2ccccc21	106.4	78.1	·	84.2
85	CCNc1nc(NCC)nc(Nn2cnnc2)n1	101.4	104.4	2.5	112.7
86	N#CC1=C(N)NC(SCc2ccccc2)=C(C#N)C12CCCCC2	·	43.4	0.5	25.0
87	COc1ccc(OCCn2c(NC(=O)c3ccc(OC)cc3)nc3ccccc32)cc1	105.3	93.5	-55.9	84.2
88	CCN1CCCC1CNC(=O)Nc1cn(CC(C)C)c(=O)c2ccccc12 (configuration not stated)	97.3	98.0	-30.5	85.1
89	CC(C)Cc1cc(-c2nn3c(-c4cnccn4)nnc3s2)n[nH]1	105.8	·	-30.1	·
90	O=C(NC1c2ccccc2Oc2ccccc21)c1cccnc1	·	100.5	-19.6	92.1

# Structural class: the entries above containing a COOH group
no.	Molecule	GIV-Gai inh	Sa growth inh	HCMV UL50-53 inh	Sa growth inh second temp
2	CCn1c2ccccc2c2cc(/C=C/C(=O)O)ccc21	·	95.3	-26.5	89.8
29	Cc1cc(C)c2c(CC(=O)O)coc2c1	104.2	98.1	-9.2	79.6
48	COc1ccc(N2C(=O)CC(SCC(=O)O)C2=O)cc1 (configuration not stated)	98.5	101.5	·	90.3
55	O=C(O)C(Cc1ccccc1)N1C(=O)C2C3C=CC(C3)C2C1=O (configuration not stated)	97.5	86.9	-5.4	83.6
65	CCC(=O)OC(OP(=O)(CCCCc1ccccc1)CC(=O)N1C[C@H](C2CCCCC2)C[C@H]1C(=O)O)C(C)C (some centres not stated)	108.4	99.6	-39.0	100.1

# Further records
no.	Molecule	GIV-Gai inh	Sa growth inh	HCMV UL50-53 inh	Sa growth inh second temp
91	CCOCCOC(=O)C1=C(C)NC2=C(C(=O)CC(c3ccccc3)C2)C1c1cccc(Br)c1 (configuration not stated)	100.5	·	-15.8	·
92	COc1ccc(CNC(=O)C(C)OC(=O)c2ccccc2)cc1 (configuration not stated)	·	108.4	-5.4	111.0
93	O=C(NCc1ccc(Cl)cc1)c1cc2ccc3cccnc3c2[nH]1	110.9	81.7	·	86.8
94	CC1CC(C)CN(C(=O)Cn2c(=O)oc3ccccc32)C1 (configuration not stated)	·	96.6	-4.1	97.1

# Retrieved by structure from the entries so far (4):
no.	Molecule	GIV-Gai inh	Sa growth inh	HCMV UL50-53 inh	Sa growth inh second temp
88	CCN1CCCC1CNC(=O)Nc1cn(CC(C)C)c(=O)c2ccccc12 (configuration not stated)	97.3	98.0	-30.5	85.1
20	O=C(CCC(=O)N1CCSc2ccccc21)NCc1ccccc1Cl	104.6&108.3	112.5	-3.9&-19.7	95.2
77	NC(=O)c1ccc[n+]([C@@H]2O[C@H](COP(=O)([O-])OP(=O)(O)OC[C@H]3O[C@@H](n4cnc5c(N)ncnc54)[C@H](O)[C@@H]3O)[C@@H](O)[C@H]2O)c1	·	88.8	-15.9&-15.5	88.1
66	O=C(NCC1COC2(CCCCC2)O1)Nc1ccccc1 (configuration not stated)	100.8	102.9	-13.5	85.4
